VACV mCherry inh – inhibitors of vaccinia virus infection (mCherry reporter signal). Vaccinia virus mCherry reporter infection, fluorescence; about a quarter of the inactives have no number. Potency, µM (doses to about 36.5 µM), for inactives: top-dose activity change, negative = inhibition, actives largely listed as inhibitors. 0.63% of 310,000 active. AID 720579; active = well fitted inhibition curve with a large enough effect; inconclusive = small, poorly fitted or top-dose-only effect; inactive = no such curve, though single readings can be large or run the other way; tested in A549 cells; also: nearly all actives have a fitted effect of over 35% in size; inactives centre near -10
Vaccinia Venus – inhibitors of vaccinia virus (Venus reporter); Vaccinia virus Venus reporter expression, fluorescence; Potency, µM (series often up to 36.5 µM), inactives show at the highest dose activity change, negative = inhibition, usual class: inhibitors; 0.46% of 330,000 active; AID 720580; active means well fitted inhibition curve with a large enough effect; inconclusive means small, poorly fitted or top-dose-only effect; inactive means no such curve, though single readings can be large or run the other way; tested in A549 cells; also: nearly all actives have a fitted effect of over 30% in size; inactives centre near -10
Active calls of the source: *; i = inactive; ? = inconclusive; / = not tested or not shown; [ ] = another dose, or the depositor's remark. % is scaled to controls: 0 for no effect and ±100 for the full control effect; potency is read from the fitted curve at half-maximal effect.

Every second line gives: VACV mCherry inh, Vaccinia Venus
CC1(C)CC(=O)c2c(n(S(=O)(=O)c3ccccc3)c3ccc(NS(=O)(=O)c4ccccc4)cc23)C1
 : ?, ?
COc1cc2c(cc1OC)C(c1ccc3c(c1)OCO3)C1=C(CC(C)(C)CC1=O)N2 (centres undefined)
 : i, -7%
Cc1cc(C)c([N+](=O)[O-])cc1NC(=O)CCSc1ccccc1Cl
 : i, -12%
Cc1cccc(C)c1NC(=O)CNc1ncnc2sc(C)c(C)c12
 : -14%, -8%
CCc1nc2c(OCc3ccc(F)cc3)cccn2c1N(C)C(=O)c1ccco1
 : 31%[activator], -7%
O=C(NC1CCCc2c1cnn2-c1ccc(F)cc1F)c1cnccn1 (centres undefined)
 : i, -2%
N#Cc1c2c(nc(N)c1-c1ccccc1)CCCCC2
 : -4%, 0%
CC1(C)CC(=O)C2=C(C1)OC(N)=C(C#N)C2c1ccccc1[N+](=O)[O-] (centres undefined)
 : -25%, -2%
Cc1cccc(NC(=O)c2ccc(S(=O)(=O)N3CCOCC3)cc2)c1C
 : -1%, -10%
COc1ccc(OCc2nnc(SCC(=O)Nc3ccccc3F)o2)cc1
 : -31%, 7%
O=C(NCc1cccc(Cl)c1)c1ccc(NC(=O)N2CCSc3ccccc32)cc1
 : -1%, -6%
CC(C)C[C@H]1CN(CCCC[C@@H]2CNC(=O)C(=O)N2Cc2ccccc2)C(=O)C(=O)N1CCC1CCCCC1
 : i, -2%
Cc1ccc(Sc2cnc3ccccc3n2)cc1
 : i, -14%
O=C(NNC(=S)NC(=O)c1ccccc1Cl)c1cccc([N+](=O)[O-])c1
 : i, -11%
Cc1cc(C)c2c(N=CN(C)C)c(C(=O)N3CCN(c4ncccn4)CC3)sc2n1
 : -18%, -14%
CC(=O)c1ccccc1NC(=O)COC(=O)C1=NN(c2ccccc2)C(=O)CC1
 : -6%, 10%
O=S(=O)(N1CCOCC1)N1CCCN(S(=O)(=O)N2CCOCC2)CC1
 : /, -22%
O=C1N(c2cccc(Cl)c2)C(c2ccccc2)N2CCCN12 (centres undefined)
 : -12%, -14%
O=[N+]([O-])c1ccccc1/C=C/c1ccnc2ccccc12
 : -4%, -23%
CSCCC(NC(=O)C1CCC(C)CC1)C(=O)NCCN1CCC(C)CC1 (centres undefined)
 : i, -6%
Cc1ccc(CCNC(=O)C2CCC(=O)N2C2CCCC2)cc1 (centres undefined)
 : -2%, -12%
COc1cc(CCC(=O)Nc2ccc(Br)c(C(F)(F)F)c2)cc(OC)c1OC
 : ?, ?
NC(=O)[C@@H]1CCCNc2c(F)cc([N+](=O)[O-])cc2C(=O)N[C@@H](CO)C(=O)NCC(=O)N1
 : i, -4%
CCn1cc(S(=O)(=O)c2ccccc2)c(=O)c2cc(F)c(F)cc21
 : -7%, -9%
CC(C)c1ccc(NC(=O)CSc2nc(=O)n(Cc3ccccn3)c3c2CCC3)cc1
 : -16%[7.34 µM], -12%[7.34 µM]
CC1(c2ccc(Cl)cc2)NC(=O)N(CC(=O)c2ccc3c(c2)OCO3)C1=O (centres undefined)
 : -4%, -19%
c1ccc(Oc2ccc(-n3cnnn3)cc2)cc1
 : -4%, -16%
O=C(COc1ccccc1)Nc1nc(-c2ccc(S(=O)(=O)N3CCOCC3)cc2)cs1
 : -7%, -23%
O=C(c1ccc(OC2CCN(Cc3ccccc3O)CC2)cc1)N1CCCCC1
 : -14%, -10%
CN(C)C(=O)Oc1ccc(Br)cc1C(=O)Nc1ccc(F)c(Cl)c1
 : -22%, 0%
N#CCC(=O)Nc1nc(-c2ccc3c(c2)OCCO3)cs1
 : -10%, -17%
COc1cc(NS(=O)(=O)c2ccc3c(c2)NC(=O)CO3)cc(OC)c1
 : ?, -16%
N#Cc1c(-c2ccccc2)cc(-c2cccs2)nc1SCC(=O)O
 : -14%, -10%
O=[N+]([O-])c1ccc2nc(Cl)nc(-c3ccccc3)c2c1
 : i, -11%
COc1ccccc1NC(=S)N(Cc1ccc(C)cc1)Cc1cccnc1
 : -4%, 3%
Cc1ccc(-c2nc3ccc(Br)cn3c2Cc2ccccc2)cc1
 : -7%, -13%
Cc1cccc(NS(=O)(=O)c2ccc(OCC(=O)N3CCCC3)cc2)c1
 : i, -3%
O=c1[nH]c(=O)n(-c2ccccc2)c2c1C(C(F)(F)F)(C(F)(F)F)N=C(CCC1CCCCC1)N2
 : i, -14%
COc1ccccc1C(=O)Nc1cccc(N(C)S(C)(=O)=O)c1
 : /, -29%
O=C(CSc1nc(O)cc(=O)n1-c1ccccc1)N1CCCCC1
 : -6%, -7%
Cc1c(Cl)cnc(NC(=O)COC(=O)c2ccncc2)c1Cl
 : -5%, -7%
COc1ccc(CNC(=O)C(c2ccc(C)o2)N(C(=O)c2csnn2)c2ccc(C(C)C)cc2)cc1 (centres undefined)
 : /, ?
CC(C)c1nc(SCc2c(F)cccc2Cl)c2c(=O)n(C)c(=O)n(C)c2n1
 : -1%, ?
CCNC(=O)CC1C(=O)N(c2ccc(F)cc2)C(=O)N1Cc1ccc(OC)c(OC)c1 (centres undefined)
 : 0%, -2%
COCCC(=O)N1CCc2c([nH]c3ccccc23)C1C(C)(C)C (centres undefined)
 : -15%, -5%
COc1ccc(OCCOC(=O)CNS(=O)(=O)c2ccc(SC)c([N+](=O)[O-])c2)cc1
 : -15%, -5%
CCC1CCCCN1CCCNC(=O)Cn1c(=O)c2cccn2c2ccccc21 (centres undefined)
 : i, -13%
Cc1cc2c(c(=O)n1C)C(Cc1ccccc1)C(C#N)=C(N)O2 (centres undefined)
 : -19%, -6%
COc1ccccc1NC(=O)CN1CCC(c2nc3ccccc3[nH]2)CC1
 : -24%, -16%
CS(=O)(=O)N(CC(=O)N1CCOCC1)c1cccc(Cl)c1
 : -8%, -8%
NS(=O)(=O)c1ccc(NS(=O)(=O)c2ccc(C3CNC(=O)C3)cc2)cc1 (centres undefined)
 : -4%, -13%
c1ccc2c(c1)ccc1nnnn12
 : -18%[7.34 µM], 2%[7.34 µM]
O=C(O)c1cc(=O)c2cccc(O)c2[nH]1
 : -14%, -8%
CCCCNC(=O)C1(C)CCC(=O)N1CCCn1ccnc1 (centres undefined)
 : i, 4%
COc1cnc(-c2ccccc2)nc1Sc1ccccc1
 : -7%, 1%
Cn1ncc2c1NC(c1ccc(F)cc1)SCC2=O (centres undefined)
 : -2%, -13%
Cc1ccc(CSc2nc3ccncc3n2Cc2nc(-c3ccc(Cl)cc3)oc2C)cc1
 : -14%, -4%
CC(=O)N1N=C(c2cccc([N+](=O)[O-])c2)OC1c1cccc(Br)c1 (centres undefined)
 : -29%, -21%
CCCCNC(=O)C(CC)Sc1nnc(-c2ccc(OC)c(OC)c2)c(-c2ccc(OC)c(OC)c2)n1 (centres undefined)
 : -7%, -4%
CCCc1nc2ccccc2c(C(=O)OCC(=O)N2CCc3ccccc32)c1CC
 : i, -11%

(cont.)
Every second line gives: VACV mCherry inh, Vaccinia Venus
COc1ccc(S(=O)(=O)N(CC(=O)NCc2ccco2)c2ccc(F)cc2)cc1
 : -13%, -14%
Cc1cccc(NC(=O)CSc2nc3[nH]c(=O)cc(O)c3s2)c1
 : -10%, -2%
O=C(COc1ccc(F)cc1)OCc1cc(=O)n2nc(C3CCCCC3)sc2n1
 : -9%, 1%
COc1ccc(NC(=O)COC(=O)CC2CCCC2)cc1Cl
 : i, -3%
Cc1cc(C)c(NC(=O)COC(=O)c2cccc3c2C(=O)c2ccccc2C3=O)c(C)c1
 : ?, -30%
CC(C(=O)Nc1ccc(Cl)cc1)N(C)Cc1cccs1 (centres undefined)
 : ?, -8%
CCC(=O)N1CCc2cc(S(=O)(=O)NCc3ccc(C)cc3)ccc21
 : -8%, 9%
COc1ccc(C(=O)CSc2nnc(CNC(=O)c3ccco3)n2C)cc1OC
 : -20%, -5%
C/C(=N\NC(=O)CNC(=O)C(c1ccccc1)c1ccccc1)c1ccc(C(C)(C)C)cc1
 : -24%, -1%
CCOC(=O)c1ccc(N2C(=O)c3[nH]nc(-c4ccccc4)c3C2c2cccs2)cc1 (centres undefined)
 : -18%[7.34 µM], -15%[7.34 µM]
COc1ccc(-c2csc(Nc3ccccn3)n2)cc1OC
 : -27%, -26%
O=C1C=C(c2ccc(Oc3ccccc3)cc2)C[C@@H](c2ccc(Cl)cc2)C1
 : -10%, -1%
Cc1cc(N2CCN(C)CC2)nc2ccc(NC(=S)N3CCN(c4ccccn4)CC3)cc12
 : -16%, 3%
COc1ccc(-c2nc3ccccc3s2)cc1NC(=O)COc1ccccc1C
 : ?, ?
CCc1nc(Nc2ccccc2F)c2oc3ccccc3c2n1
 : i, ?
CC(=O)c1c(-c2ccccc2)c2cc(Cl)ccc2[nH]c1=O
 : ?, ?
COC(=O)c1ccc(C)c(NS(=O)(=O)c2ccc3c(c2)OCCO3)c1
 : ?, ?
C[C@@H](C(=O)NCc1c(F)cccc1Cl)N1C(=O)N2CCc3c([nH]c4ccccc34)[C@@]2(C)C1=O
 : -2%, -2%
CC1=C(C(=O)Nc2ccc(F)c(F)c2)C(c2cccs2)NC(=S)N1 (centres undefined)
 : -15%, 1%
CCOc1ccccc1/C=N/OCC(=O)NCc1ccc(F)cc1
 : -13%, -3%
CC(C)CC(COCc1ccc(Cl)cc1)N1CCN(C(=O)c2ccc(C(F)(F)F)cc2)CCC1=O (centres undefined)
 : i, -28%
COCCN1Cc2cccc(C(=O)Nc3ccc(S(=O)(=O)N4CCCCCC4)cc3)c2C1=O
 : i, -19%
CC/C(=N/NC(=O)CNc1ccc(Cl)cc1C)c1ccccc1
 : -1%, -8%
Cc1cc(NS(=O)(=O)c2ccc(NC(=O)c3cnc4sccn4c3=O)cc2)nc(C)n1
 : 4%, 5%
Cn1nnc2cc(C(=O)Nc3ccccc3F)ccc21
 : -14%, 0%
COC(=O)c1c(NC(=O)c2ccco2)sc2c1CCN(C(C)=O)C2
 : -23%, -19%
COc1ccc(C(=O)NNC2=NC(C)(C)Cc3cc(C)c(C)cc32)cc1
 : -22%, -10%
Cc1[nH][nH]c(=O)c1N=Nc1ccc(Cl)cc1
 : -24%, ?
CSc1nc(COC(=O)NC(C)C)c(COC(=O)NC(C)C)n1Cc1ccccc1
 : i, -5%
Cc1cc(N)ccc1N=Nc1c(C)n(C)n(-c2ccccc2)c1=O
 : i, -8%
COc1ccc(CC(=O)O/N=C(\N)c2ccc(C)cc2)cc1
 : -14%, -12%
C=CCn1c(N)c(C(=O)Nc2ccccc2)c2nc3ccccc3nc21
 : -20%[1.46 µM], -16%
Cc1ccc2occ(/C=N/O)c(=O)c2c1
 : /, -19%
CN(c1ccccc1)S(=O)(=O)c1nnc(NC(=O)c2ccccc2)s1
 : -5%, -4%
COc1ccc(CCNC(=O)c2c(N)no[n+]2[O-])cc1OC
 : -3%, -13%
O=C(c1ccccc1F)N(Cc1cccnc1)Cc1cc2cc3c(cc2[nH]c1=O)OCCO3
 : -12%, -21%
Cc1c(C(=O)Nc2cccc(Cl)c2)sc2nc3n(c(=O)c12)N=C(c1cccc(Br)c1)CS3
 : -1%, 4%
Cc1ccc(Nc2cc(C)nc3c(C)ccc([N+](=O)[O-])c23)cc1
 : -9%, -1%
CSC1=NCCN1S(=O)(=O)c1ccc2ccccc2c1
 : i, -13%
Cc1c(NC(=O)COC(=O)C23CC4CC(CC(Br)(C4)C2)C3)c(=O)n(-c2ccccc2)n1C
 : -12%, -6%
COc1cccc(CNC(=O)CSc2ccc(-c3cccs3)nn2)c1
 : -20%, -17%
O=[N+]([O-])c1ccccc1/C=C/C=N/n1c(-c2ccccc2)n[nH]c1=S
 : -28%, 3%
O=C(NCc1ccc(Cl)nc1)c1csc([C@@H]2C[C@H](O)[C@@H](CO)O2)n1
 : -1%, -10%
Cc1nc2[nH]c(=S)[nH]c2c(=O)[nH]1
 : i, -16%
Cc1cccc(CNC(=O)c2sc(=O)n(Cc3ccccc3C)c2C)c1
 : 2%, -4%
CC(=O)c1cccc(OCCCOc2cccc3cccnc23)c1
 : -3%, -14%
O=C(C1CCC1)N1CCC(c2nc3c(nnn3Cc3c(F)cccc3Cl)c(=O)[nH]2)CC1
 : -1%, -14%
CCOc1ccccc1-n1c(O)c(C=Nc2c(C)n(C)n(-c3ccccc3)c2=O)c(=O)[nH]c1=O
 : -15%, -6%
CCN(CCn1cccn1)C(=O)CC1C(=O)NCCN1CCc1ccccc1 (centres undefined)
 : i, -5%
COc1ccc(S(=O)(=O)Nc2cccc(S(=O)(=O)N3CCCCC3)c2)cc1
 : i, -10%

Five entries from above, arranged by heavy-atom count, smallest number first.
Every second line gives: VACV mCherry inh, Vaccinia Venus
COc1ccc(CCNC(=O)c2c(N)no[n+]2[O-])cc1OC
 : -3%, -13%
O=[N+]([O-])c1ccccc1/C=C/C=N/n1c(-c2ccccc2)n[nH]c1=S
 : -28%, 3%
C=CCn1c(N)c(C(=O)Nc2ccccc2)c2nc3ccccc3nc21
 : -20%[1.46 µM], -16%
O=C(C1CCC1)N1CCC(c2nc3c(nnn3Cc3c(F)cccc3Cl)c(=O)[nH]2)CC1
 : -1%, -14%
Cc1c(NC(=O)COC(=O)C23CC4CC(CC(Br)(C4)C2)C3)c(=O)n(-c2ccccc2)n1C
 : -12%, -6%

Source: PubChem

Compounds were not picked by outcome, and some 0.88% of all compounds hit somewhere here.
